# H5N1 antiviral = MDCK cell protection from H5N1 avian flu; cytopathic effect, luminescence, 72 h; active compounds read high; no value below 0 was filed and about half of the inactive calls have no number; reference of the scale not given here; inhibition, % at 50 µM; 96,000 compounds, 0.07% hits; in the data active means inhibition above about 25%
# Active calls of the source: *; i = inactive. Some of the compounds tested; the hit share may differ from the screen's.
SMILES,H5N1 antiviral
CCCCCn1c(SCCc2ccccc2)nc2c1c(=O)[nH]c(=O)n2C,i
CC(C)OC(=O)CSc1nnc(-c2ccc(Cl)cc2Cl)o1,i
CCCCNC(=O)CCC(=O)Nc1ncc(-c2ccc(C)cc2)n1C,0.4
O=C(CSc1ccc2nnc(-c3ccc(Cl)cc3)n2n1)N1CCc2ccccc21,i
CCc1ccc(C(=O)COC(=O)C(Cc2ccccc2)NC(=O)c2ccc(Cl)cc2)cc1 (stereo unspecified),i
Cc1cccc(NC(=O)Nc2ccc3c(c2)N(C)C(=O)CS3)n1,3.5
Cc1ccc(-c2noc(CCC(=O)NCc3ccco3)n2)cc1,i
CCOc1cc(/C=C2\C(=O)N(Cc3ccc(C)cc3)C(C)=C2C(=O)OC)ccc1O,i
CC(C)COC(=S)Nc1ccccc1,0.4
CCN(C(N)=S)c1ccccc1,i
CN1CCN(c2nc(-c3ccccc3)c3cc(Cl)ccc3n2)CC1,i
CC(C)c1cc(C(=O)Nc2sc3c(c2C#N)CCC3)no1,i
COc1cc(NC(=O)c2ccc(Cl)cc2)c(OC)cc1Cl,i
CCOC(=O)c1nnsc1NC(C)=O,i
CCOC(=O)CC(=O)CSc1ncnc2c1oc1ccccc12,0.7
Cc1sc2ncn(CC(=O)NCCCC(=O)N3CCN(c4ccccn4)CC3)c(=O)c2c1C,2.9
CCCCN(C)C(=O)C(Cc1ccccc1)NS(=O)(=O)c1ccc2c(c1)c(=O)n(C)c(=O)n2C (stereo unspecified),0.2
Cc1onc(-c2c(F)cccc2Cl)c1C(=O)NCCCN1CCOCC1,0.4
O=C(COC(=O)CCc1ccccc1)Nc1ncc(Cl)cc1Cl,i
COc1cc2c(=O)n(Cc3ccccc3)c(=O)n(CC(=O)NCc3ccco3)c2cc1OC,1.7
CCn1cc(C(=O)N2CCCC2)c(=O)c2cc(S(=O)(=O)N3CCOCC3)ccc21,i
CC(=O)Nc1cccc(-c2nnc3n2CC(C)S3)c1 (stereo unspecified),0.7
O=C(CC(c1ccccc1)c1ccccc1)Nc1ncn[nH]1,1.8
OC(c1cccc(OCc2ccccc2)c1)c1nnc(-c2ccccc2)o1 (stereo unspecified),i
COc1ccc(CN2CC(C(=O)NCCc3ccccc3)CC2=O)cc1 (stereo unspecified),0.5

# Some of the entries so far, bar-delimited.
molecule | H5N1 antiviral
Cc1cccc(NC(=O)Nc2ccc3c(c2)N(C)C(=O)CS3)n1 | 3.5
CCn1cc(C(=O)N2CCCC2)c(=O)c2cc(S(=O)(=O)N3CCOCC3)ccc21 | i
Cc1onc(-c2c(F)cccc2Cl)c1C(=O)NCCCN1CCOCC1 | 0.4
CC(=O)Nc1cccc(-c2nnc3n2CC(C)S3)c1 (stereo unspecified) | 0.7

# Back to the main list; the 2 compounds before the break are reprinted first.
SMILES,H5N1 antiviral
OC(c1cccc(OCc2ccccc2)c1)c1nnc(-c2ccccc2)o1 (stereo unspecified),i
COc1ccc(CN2CC(C(=O)NCCc3ccccc3)CC2=O)cc1 (stereo unspecified),0.5
CCOC(=O)N1CCN(c2c(N3CCc4ccccc43)c(=O)c2=O)CC1,1.6
Cc1cc(C)cc(N(CC(=O)N2CCN(Cc3ccccc3)CC2)S(=O)(=O)c2c(C)noc2C)c1,0.4
COc1cccc(-n2nnnc2SCC(=O)Nc2ccc3c(c2)OCCO3)c1,i
C/C(=N\NC(=O)c1cc2ccccc2cc1O)c1ccc2c(c1)OCO2,1.6
CCCCCCCc1nc2c(=O)n(C)c3ccccc3c2o1,i
CCCCC(=O)Nc1ccc(Br)cc1C(=O)O,0.7
COc1ccc(OC)c(C(c2nnnn2Cc2ccccc2)N2CCC(C(N)=O)CC2)c1 (stereo unspecified),1.1
CCn1c(CCNC(=O)c2ccccc2Cl)n[nH]c1=S,i
Cc1ccc(SCC(=O)NC(=O)NCc2ccco2)c(C)c1,i
CCOC(=O)Nc1ccc(S(=O)(=O)Nc2nccc(C)n2)cc1,i
CCOC(=O)C1=C(C)NC(=O)NC1c1cccc(O)c1 (stereo unspecified),0.1
COc1ccc(N(CC(=O)Nc2cc(Cl)ccc2OC)S(=O)(=O)c2c(C)noc2C)cc1,i
CCOC(=O)N1CCN(C(=O)c2cccc(OC)c2O)CC1,i
Cc1ccc(N(C(=O)c2cccs2)C2C=CS(=O)(=O)C2)cc1 (stereo unspecified),4.1
CCN1C(=O)c2cccc3c(NS(=O)(=O)c4ccc(NC(C)=O)cc4)ccc1c23,i
CCOc1ccc2nc(SCc3ccccc3C#N)sc2c1,i
CC1CCN(c2nc(-c3ccc(F)cc3)cc(C(F)(F)F)n2)CC1,3.0
CCOC(=O)COc1cccc2c(=O)n(CC(=O)N3CCc4ccccc43)ccc12,1.7
CCc1ccccc1NC(=S)N1CCC(C(=O)c2ccc(F)cc2)CC1,i
CC(NC(=O)c1cc(-c2ccccc2)on1)c1ccccc1 (stereo unspecified),1.2
O=C(NC1CCN(C(=S)NCc2ccco2)CC1)NC12CC3CC(CC(C3)C1)C2,i
NC(=O)c1c(NC(=O)c2ccccc2)sc2c1CCc1ccccc1-2,i
Cn1c(=O)c2c(nc(SCC(=O)NC34CC5CC(CC(C5)C3)C4)n2C)n(C)c1=O,i
CO/N=C/NC(=O)NOCc1c(Cl)cccc1Cl,2.1
COc1cccc(NC(=O)c2ccc(CN3CCOCC3)cc2)c1,0.2

# Further structures follow.
SMILES,H5N1 antiviral
CC(C)c1nnc(NC(=O)CCCC(=O)O)s1,i
CCN1CCN(S(=O)(=O)c2ccc(S(=O)(=O)N(CC)Cc3ccccc3)cc2)CC1,3.1
CCn1ncc(Br)c1C(=O)Nc1ccc(Cl)cn1,0.2
Cc1ccc2oc(=O)c3cc(C(=O)NCCN4CCN(C)CC4)sc3c2c1,i
Cc1nc(COC(=O)c2c(C)nn(-c3ccccc3)c2C)cs1,1.7
Cc1nnc(NC(=O)CSc2nnc(Cc3ccccc3)n2-c2ccccc2)s1,i
CC1=NN(c2ccc(N)cc2)C(=O)C1,i
CC12CN3CCN(CC(C3)C1(O)CN1CCOCC1)C2 (stereo unspecified),i
Cc1cccc(NC(=O)c2cc(NC(=O)c3ccco3)ccc2Cl)n1,i
COCCn1c(SCC(=O)Nc2cc(Cl)ccc2OC)nc2c(c1=O)SC(C)C2 (stereo unspecified),2.1
CN(C)/C(CN1CCN(C=O)CC1)=C1\N=C(c2ccccc2)OC1=O,0.4
CCCCCCCOc1ccc(OC(=O)c2cccnc2)cc1,i
COc1cccc(C(=O)N(Cc2ccc(N(C)C)cc2)C2CCS(=O)(=O)C2)c1 (stereo unspecified),0.2
O=C(CN1C(=O)CSC1=O)Nc1ccc(C(=O)O)cc1,0.3
Cc1onc(-c2c(F)cccc2Cl)c1C(=O)Nc1nc2ccccc2[nH]1,i
COCCn1c(=O)[nH]c2cc(C(=O)NCCN3CCN(c4ccccc4F)CC3)ccc2c1=O,i
Cc1[nH]n(-c2cccc(Cl)c2)c(=O)c1/C=N/n1c(C)nc2ccccc2c1=O,0.7
Cc1ccc(OCC(=O)NNC(=O)C(C)Sc2ncnc3sc(C)c(C)c23)cc1 (stereo unspecified),i
N#CC1=C2SCN(Cc3ccco3)CN2C(=O)CC1c1ccccc1F (stereo unspecified),1.7
O=S1(=O)c2ccccc2N=NN1Cc1ccc(Cl)c(Cl)c1,i
Cc1occc1C(=O)Nc1sc2c(c1C(N)=O)CCC(C(C)(C)C)C2 (stereo unspecified),i
CCc1ccccc1NC(=O)N1C2CCCC1CC(NC(C)=O)C2 (stereo unspecified),0.1
COC(=O)CSc1ncnc2c1cnn2Cc1ccccc1,i
CCN1CCC(=NNC(=O)c2ccco2)CC1,1.1
O=[N+]([O-])c1cccc(/C=C/c2nc3ccc([N+](=O)[O-])cc3[nH]2)c1,1.9

# Entries shown so far that have a thiophene ring, fused or not, in the order listed:
SMILES,H5N1 antiviral
CC(C)c1cc(C(=O)Nc2sc3c(c2C#N)CCC3)no1,i
Cc1sc2ncn(CC(=O)NCCCC(=O)N3CCN(c4ccccn4)CC3)c(=O)c2c1C,2.9
Cc1ccc(N(C(=O)c2cccs2)C2C=CS(=O)(=O)C2)cc1 (stereo unspecified),4.1
NC(=O)c1c(NC(=O)c2ccccc2)sc2c1CCc1ccccc1-2,i
Cc1ccc2oc(=O)c3cc(C(=O)NCCN4CCN(C)CC4)sc3c2c1,i
Cc1ccc(OCC(=O)NNC(=O)C(C)Sc2ncnc3sc(C)c(C)c23)cc1 (stereo unspecified),i
Cc1occc1C(=O)Nc1sc2c(c1C(N)=O)CCC(C(C)(C)C)C2 (stereo unspecified),i

# Next entries.
SMILES,H5N1 antiviral
c1ccn(-c2ccc(N3CCOCC3)cc2)c1,0.5
Cc1ccc(-c2nn(-c3ccccc3)cc2CSC(=N)N)cc1,i
CCOC(=O)N1CCN(C(=O)CN(C2CCCCC2)S(=O)(=O)c2ccc(F)cc2)CC1,i
CCS(=O)(=O)N1CCN(C(=O)c2cccc(OC)c2)CC1,i
CC(=O)c1cccc(N(CC(=O)N2CCCC2)S(C)(=O)=O)c1,0.3
CC(=O)N1CCc2cc(S(=O)(=O)NCCN3CCC(C)CC3)ccc21,1.9
Cc1cc(OCCN2CC(C)OC(C)C2)ccc1[N+](=O)[O-] (stereo unspecified),2.2
CCCCC(=O)C1C(=O)NC(=O)NC1=O,i
Cc1ccc(N/C(CSC(N)=O)=N\S(=O)(=O)c2ccc(C)cc2)cc1,i
Cn1c(CNC(=O)c2ccco2)nnc1SCC(=O)N1c2ccccc2Sc2ccccc21,i
COc1ccc(S(=O)(=O)N(C)CC(=O)N2CCN(C)CC2)cc1C,0.2
CC(C)(C)P(=O)(CO)c1ccccc1 (stereo unspecified),i
COC(=O)c1ccc(Sc2ccccc2NS(=O)(=O)c2ccc(OC)cc2)nc1,0.4
CN(C)c1nc(N)nc(CSc2nnnn2-c2ccc(F)cc2)n1,i
COc1ccc(N(C)C(=O)CC2(CC(=O)O)CCCCC2)cc1,0.5
CCOC(=O)CCSc1nnc(-c2cccnc2)n1-c1ccccc1OC,0.8
Cc1occc1C(=O)Nc1cc(=O)n(C)c(=O)n1C,0.5
N#Cc1cc2c(nc1SCC(=O)Nc1sc3c(c1C#N)CCC3)CCCCC2,i
Cc1c(Cl)cccc1NC(=O)CN1CCC(NC(=O)C2CCCCC2)CC1,i
Cc1cccc(N(C(=O)c2csnn2)C(C(=O)NC(C)(C)C)c2cccs2)c1 (stereo unspecified),0.3
COCCn1nnnc1CN(CCc1ccccc1)Cc1cc2ccc(C)cc2[nH]c1=O,1.5
CC(C(N)=O)N1C(=O)c2cccc3cccc1c23 (stereo unspecified),i
CN(C)c1cccc(NC(=O)CCc2ccccc2)c1,0.2
Cc1cc(C)nc(SCc2nnc(SCC(=O)Nc3nccs3)n2Cc2ccco2)n1,i
Cc1cccc(OCc2nc(C)cc(=O)[nH]2)c1,i

# A run of entries taken from the entries so far, for reference:
SMILES,H5N1 antiviral
CC(C(N)=O)N1C(=O)c2cccc3cccc1c23 (stereo unspecified),i
CN(C)c1cccc(NC(=O)CCc2ccccc2)c1,0.2
Cc1cc(C)nc(SCc2nnc(SCC(=O)Nc3nccs3)n2Cc2ccco2)n1,i
Cc1cccc(OCc2nc(C)cc(=O)[nH]2)c1,i

# Later entries
SMILES,H5N1 antiviral
C=CCC(NCc1ccco1)c1ccc(OC)c(OC)c1 (stereo unspecified),i
O=C(c1ccccc1-c1nc2ccccc2[nH]1)N1CCCCC1,0.0
Cc1ccc(-n2c(C)cc(/C=N/Nc3ccc([N+](=O)[O-])cn3)c2C)cc1,i
Cc1ccc(C(=O)Nc2nccc(-c3cccs3)n2)cc1,2.0
CC1CCN(C(C(=O)Nc2ccc(C(C)C)cc2)c2ccc3c(c2)OCO3)CC1 (stereo unspecified),i
c1ccc2c(c1)NC1(CCCCCC1)n1c-2nc2ccccc21,1.4
CC(C)(C)N(C=C(Cl)Cl)C(=O)NC1CCCCC1,0.1
CC(C)(C)C(=O)N1CCC(O)(CS(=O)(=O)Cc2ccc(Cl)cc2)CC1,i
CNC(=O)C1CC(=O)N(CCCc2ccccc2)C(=Nc2ccccc2)S1 (stereo unspecified),i
Cc1ccc(Cl)cc1NC(=O)Cn1cc2c(n1)CCCC2,0.1
Cc1ccc(N=Cc2c(O)n(C)c(=O)n(C)c2=O)nc1,i
Cc1sc2c(c1C)C(=O)NC(c1cccc(O)c1)N2 (stereo unspecified),0.2
Cn1cccc1-c1nc2ccc(NC(=O)c3ccccc3)cc2[nH]1,i
COc1ccc(NC(=O)CN2CCN(S(=O)(=O)c3ccc(Cl)cc3)CC2)cc1,0.7
O=C(CSC1=NCCS1)Nc1ccc(S(=O)(=O)N2CCCCCC2)cc1,i
COc1ccccc1CNC(=O)CNCC1CCCO1 (stereo unspecified),1.4
COc1ccc(OC)c(-c2cc(C(=O)N3CCN(c4ncccn4)CC3)c3ccccc3n2)c1,i
O=C(C1CCN(S(=O)(=O)N2CCOCC2)CC1)N1CCN(Cc2ccccc2)CC1,i
CCC(=O)Nc1ccccc1N1CCN(S(C)(=O)=O)CC1,1.4
CC(C)CC(c1nnnn1C(C)C)N1CCN(c2ccccc2)CC1 (stereo unspecified),1.4
COc1ccc(NC(=O)c2cccc(NC(=O)c3ccco3)c2)c(OC)c1,i
C=CCc1c(C)nc(SCc2nc3ccccc3c(=O)[nH]2)[nH]c1=O,0.7
Cc1[nH]ccc(=O)c1OCc1c(Cl)cccc1Cl,0.2
COc1ccc2c(c1)C1C=CCC1C(c1cc3c(cc1Br)OCO3)N2 (stereo unspecified),i
CCN1C(=O)N/C(=C/c2ccc(Sc3ccc(C)cc3)o2)C1=O,i

# The results go on:
SMILES,H5N1 antiviral
Cn1c(=O)c2c(nc(N3CCCCCC3)n2CC(O)COc2ccccc2)n(C)c1=O (stereo unspecified),1.8
COCc1cc(C)nc(OCC(=O)N/N=C/c2cccc(OC)c2)c1C#N,i
CN1CCN(C(=O)c2ccc(C3SCC(=O)N3Cc3ccco3)cc2)CC1 (stereo unspecified),0.1
O=C(COc1ccccc1)NCCc1cn2ccsc2n1,0.4
CCOC(=O)N1CCN(Cc2cc(=O)oc3cc4c(cc23)CCC4)CC1,1.7
Cc1cc(-c2ccccc2)nc(N/N=C/c2ccco2)n1,i
CCOC(=O)c1c(C)c(C(=O)NCCN2CCOCC2)c(C)n1CC,i
CCc1ccc(C2CC(c3ccc(C)cc3)Nc3nc(N)nn32)cc1 (stereo unspecified),0.6
COC(=O)c1ccc(NC(=O)c2cccc(OC)c2)cc1,i
CCOC(=O)c1ccccc1NC(=O)CN(c1cccc(OC)c1)S(C)(=O)=O,1.8
COc1ccc(OCC(=O)N2CCN(C(=O)c3ccccc3)CC2)cc1,i
COC(=O)c1cn[nH]c1N,0.2

# Screening data (PubChem)
